Mtb hypoxia inh: reduces hypoxia-regulated biosensor signal in M. tuberculosis; M. tuberculosis hypoxia-regulated fluorescent reporter, fluorescence; fluorescence inhibition, % (test concentration not listed); 300,000 tested, 0.1% active; AID 1159583;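 active = 35 to 45% if threefold the growth effect, above 45% if 1.5-fold the growth effect; inactive = the rest, general growth blockers included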;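 also: wells of about 50 µL received 100 nL stock; 0% = vehicle wells and 100% = reference inhibitor wells; whole bacteria with a GFP reporter of the hypoxia response; strong numbers were not always called active; many hits fall short of the cut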
Sa ugtP lethal: kills S. aureus RN4220 lacking UgtP. S. aureus RN4220 ugtP deletion, OD600 growth, 16 h; some inactives read as strong as hits. 330,000 tested, 0.54% active. growth inhibition, % (concentration not given with the values);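 active = z-score under -3 and OD600 up to 0.15 on both plates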;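 also: plate controls were untreated wells for no effect and antibiotic for full effect; wells of about 80 µL received 100 nL stock; the first replicate is given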
PrP UTR inh: inhibition of PrP 5' UTR reporter expression | cell-based PrP 5' UTR mRNA reporter, plate reader | inhibition, % (concentration not given with the values) | 340,000 tested, 0.35% active | AID 488862;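 active = every replicate at 50% or more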;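 also: 0 = median of the neutral control wells; tested in H4 reporter cells; numbers are from one replicate; inactives centre near -14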
BJeLR viability: kills HRASV12-expressing BJeLR cells; BJeLR (HRASV12) viability, CellTiter-Glo ATP luminescence, 48 h; reference of the scale not given here; inhibition, % (concentration not given with the values); 300,000 tested, 0.17% active; AID 1554;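 active = replicate mean above 50%; inconclusive = above 50% but judged a plate artefact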;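 also: 50 nL library stock added to about 25 µL; numbers are from one replicate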
Sa RN4220 lethal: S. aureus RN4220 growth inhibition | OD600, 16 h | inhibition, % (test concentration not listed) | 330,000 tested, 0.33% active;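 active = z-score of -3 or lower and OD600 up to 0.18 on both plates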;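 also: plate controls were untreated cells for no effect and reference antibiotic for full effect; stock transfer was 100 nL into about 80 µL; one replicate is shown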
Bead autofluor: counter-screen for toxin protease inhibitors: compound fluorescence | compound autofluorescence counterscreen, microsphere flow cytometry; active compounds read high | fluorescence intensity (test concentration not listed) | 360,000 tested, 3.1% active | AID 624483;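 active = at least 3 SD above the mean of all compounds, about 16000 in these data; inconclusive = too few beads counted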;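 also: 100 nL of 1 mM stock went into each well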
Mtb hypoxia inh growth: recorded beside Mtb hypoxia inh, whose call it bears; growth inhibition, %; measured here: M. tuberculosis growth (absorbance);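 0% = vehicle and 100% = reference antibiotic; read after six days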
* marks the source's active call; other numbers are inactive results; ? = inconclusive; . = not tested or not shown.

SMILES	Mtb hypoxia inh	Mtb hypoxia inh growth	Sa ugtP lethal	PrP UTR inh	BJeLR viability	Sa RN4220 lethal	Bead autofluor
CCN(CC)CCOc1ccccc1C(C)=O	-4	-1	-5	-3	-4	2.0	4397
Cc1cccc(N2C(=O)/C(=C\c3ccc(OC(F)F)cc3)c3ccccc3C2=O)c1	7	3	1	-53	-13	2.4	1979
CC(=O)c1ccc(S(=O)(=O)N2CCN(CCOc3ccccc3)CC2)cc1	2	4	12	-20	.	0.9	7251
O=C1NC(=O)C(CCc2ccncc2)(Cc2cccc(Cl)c2Cl)C(=O)N1c1ccc(Br)cc1 (centres undefined)	-13	-1	-26	-20	19	1.2	10783
O=S(=O)(c1ccc(-c2nnc(SCc3nnc(-c4ccccc4)o3)o2)cc1)N1CCCC1	-1	8	-9	-6	-16	3.2	?
c1ccc(Oc2cccc(OCCCCN3CCCC3)c2)cc1	17	9	15	-18	-1	6.9	2529
O=C(Nc1ccc(N2CCCCC2)c(S(=O)(=O)Nc2ccccc2Cl)c1)c1cccnc1	7	1	-15	-28	.	2.1	3889
O=C(C[n+]1ccc(/C=N/O)cc1)N1CCCCC1	.	.	.	-49	10	.	4065
COc1cc(/C=C2\SC(=S)N(CC(=O)Nc3ccc(O)cc3)C2=O)cc(OC)c1OC	-5	6	0	-31	3	3.0	2284
CCOc1ccc(C(CC(=O)O)NC(=O)CCCOc2ccc(Cl)cc2C)cc1 (centres undefined)	15	-1	-4	-20	-2	-0.9	3252
CCN(CC)c1ccc(C(=O)NC(=S)Nc2cc(S(=O)(=O)N3CCOCC3)ccc2-n2cncn2)cc1	-3	-2	-4	-8	3	4.4	2195
CCCCCn1c(=O)c(C(=O)Nc2cccc(C)c2)c(O)c2ccccc21	0	6	33	-20	-6	1.7	4200
CCCCC(CC)C(=O)Nc1cc(C(=O)NCc2ccc(C)cc2)ccc1N1CCC2(CC1)CC(c1ccccc1)=NO2 (centres undefined)	-11	9	-1	-14	-12	6.0	3573
CC(=NO)C(=O)NCCN1CCCCC1	2	5	1	.	.	5.6	.
CN(Cc1cccs1)c1ncnc2sccc12	3	-1	-3	-21	7	6.2	4713
O=C(NCCCn1ccnc1)Nc1ccc(Cl)cc1Cl	.	.	5	-8	-5	2.2	3444
COc1ccc(NC(=O)c2cc(S(=O)(=O)NCC3COc4ccccc4O3)ccc2F)cc1 (centres undefined)	-2	2	0	-29	-10	0.2	2445
Nc1ccc(Cc2ccc(N)c(C(=O)O)c2)cc1C(=O)O	0	-8	0	-2	12	1.4	7750
O=C(CSc1nnc(-c2ccccc2)n1-c1ccc(Cl)cc1)NNC(=S)Nc1ccccc1	-6	-5	-7	-19	-9	0.3	2195
Cc1c(S(=O)(=O)Nc2cccc(Cl)c2)c(=O)n(C)c(=O)n1C	5	3	4	-2	0	7.9	5885
CC(Cn1cnc([N+](=O)[O-])n1)=NNC(=O)c1cccc(F)c1	0	9	18	.	.	-8.5	.
O=C1NC[C@@H](Cc2cccc3ccccc23)N(CCC23CC4CC(CC(C4)C2)C3)C1=O	.	.	.	-4	10	.	2964
COc1ccccc1N=c1c2c([N+](=O)[O-])cc([N+](=O)[O-])cc2n(O)n1-c1ccccc1OC	-1	2	-2	.	3	-0.4	.
Cc1cccc(CS(=O)(=O)Cc2ccc(C(=O)NCC3CCCO3)o2)c1 (centres undefined)	1	4	0	-17	6	-4.2	2007
CSc1nnc2n(-c3ccccc3)c(=O)c3c4c(sc3n12)CCC4	.	.	14	-1	.	1.9	4077

17 structures already listed, ordered by number of heavy atoms, high to low.
SMILES	Mtb hypoxia inh	Mtb hypoxia inh growth	Sa ugtP lethal	PrP UTR inh	BJeLR viability	Sa RN4220 lethal	Bead autofluor
CCCCC(CC)C(=O)Nc1cc(C(=O)NCc2ccc(C)cc2)ccc1N1CCC2(CC1)CC(c1ccccc1)=NO2 (centres undefined)	-11	9	-1	-14	-12	6.0	3573
CCN(CC)c1ccc(C(=O)NC(=S)Nc2cc(S(=O)(=O)N3CCOCC3)ccc2-n2cncn2)cc1	-3	-2	-4	-8	3	4.4	2195
O=C1NC(=O)C(CCc2ccncc2)(Cc2cccc(Cl)c2Cl)C(=O)N1c1ccc(Br)cc1 (centres undefined)	-13	-1	-26	-20	19	1.2	10783
O=S(=O)(c1ccc(-c2nnc(SCc3nnc(-c4ccccc4)o3)o2)cc1)N1CCCC1	-1	8	-9	-6	-16	3.2	?
O=C1NC[C@@H](Cc2cccc3ccccc23)N(CCC23CC4CC(CC(C4)C2)C3)C1=O	.	.	.	-4	10	.	2964
Cc1cccc(N2C(=O)/C(=C\c3ccc(OC(F)F)cc3)c3ccccc3C2=O)c1	7	3	1	-53	-13	2.4	1979
CCOc1ccc(C(CC(=O)O)NC(=O)CCCOc2ccc(Cl)cc2C)cc1 (centres undefined)	15	-1	-4	-20	-2	-0.9	3252
CC(=O)c1ccc(S(=O)(=O)N2CCN(CCOc3ccccc3)CC2)cc1	2	4	12	-20	.	0.9	7251
Cc1cccc(CS(=O)(=O)Cc2ccc(C(=O)NCC3CCCO3)o2)c1 (centres undefined)	1	4	0	-17	6	-4.2	2007
CSc1nnc2n(-c3ccccc3)c(=O)c3c4c(sc3n12)CCC4	.	.	14	-1	.	1.9	4077
c1ccc(Oc2cccc(OCCCCN3CCCC3)c2)cc1	17	9	15	-18	-1	6.9	2529
Cc1c(S(=O)(=O)Nc2cccc(Cl)c2)c(=O)n(C)c(=O)n1C	5	3	4	-2	0	7.9	5885
Nc1ccc(Cc2ccc(N)c(C(=O)O)c2)cc1C(=O)O	0	-8	0	-2	12	1.4	7750
O=C(NCCCn1ccnc1)Nc1ccc(Cl)cc1Cl	.	.	5	-8	-5	2.2	3444
O=C(C[n+]1ccc(/C=N/O)cc1)N1CCCCC1	.	.	.	-49	10	.	4065
CCN(CC)CCOc1ccccc1C(C)=O	-4	-1	-5	-3	-4	2.0	4397
CC(=NO)C(=O)NCCN1CCCCC1	2	5	1	.	.	5.6	.

The listing continues.
SMILES	Mtb hypoxia inh	Mtb hypoxia inh growth	Sa ugtP lethal	PrP UTR inh	BJeLR viability	Sa RN4220 lethal	Bead autofluor
COCCSc1nnc(NC(=O)C2CCCCC2)s1	-2	-5	9	-11	-10	2.7	17088*
CC(C)CNC(=O)c1cccc(NC(=O)Cc2ccc(Cl)cc2)c1	8	3	-8	-4	3	4.5	7649
CN(C(=O)COC(=O)C1COc2ccccc2O1)C1(C#N)CCCCC1 (centres undefined)	-4	-3	13	-5	.	7.8	2958
O=C(NCC(=O)N(c1ccccc1F)C(C(=O)NC1CCCC1)c1ccco1)c1ccco1 (centres undefined)	6	0	8	-7	-13	4.7	3530
CCSc1ncc(CO)c(N)n1	2	3	4	4	-1	5.2	3021
O=C(OCC(=O)N1CCCc2ccccc21)c1ccccc1[N+](=O)[O-]	.	.	.	-86	2	.	?
Cc1ccc(OCC2Cn3c(nc4c3c(=O)[nH]c(=O)n4C)O2)cc1C (centres undefined)	7	-15	7	-15	9	-2.3	3017
O=C(COc1ccccc1F)Nc1cc(S(=O)(=O)Nc2cccc(Cl)c2)ccc1O	7	10	19	-13	.	-5.6	8662
CCCCC(=O)Nc1ccccc1N1CCOCC1	8	3	3	-11	5	4.1	3566
Cc1cc(Nc2ccccc2)n(-c2cccc(Cl)c2)n1	1	0	5	-14	2	0.5	?
CS(=O)(=O)N(CC(=O)NCCSCc1cccc(Cl)c1)c1ccccc1F	8	1	-3	-6	13	3.8	3625
Cn1nnnc1SCC(=O)Nc1ccccc1N1CCCCC1	.	.	3	-28	8	3.1	3080
CC(C)c1ccc(C=NNc2cc(N3CCOCC3)nc(N3CCOCC3)n2)cc1	-12	1	5	.	.	-2.4	.
COCCOc1ccc(C(F)(F)F)cc1NC(=O)Cc1ccc(S(=O)(=O)N2CCOCC2)s1	-7	4	-14	-30	-3	-13	5295
CC(=O)Nc1ccc(NC(=O)c2cccc3ccccc23)cc1	4	4	7	-16	-4	2.6	4254
CCC1COCCS(=O)(=O)N1Cc1ccccc1C (centres undefined)	1	1	1	-21	2	5.7	3922
O=C(NCc1ccco1)c1cnn2c1NC(c1ccccc1)CC2C(F)(F)F (centres undefined)	5	9	7	.	-5	0.0	10020
CC(=O)Nc1ccc(C(=S)NCC2(N(C)C)CCCCC2)cc1	-3	-1	5	1	0	6.9	4478
CCOc1ccc2nc(NC(=O)Nc3cccs3)sc2c1	3	2	5	-83	4	-1.3	6254
COc1ccc(CCNC(=O)CSc2ccsc2[N+](=O)[O-])cc1OC	9	3	-2	-11	-2	9.5	1974
O=C(Oc1nsnc1N1CCOCC1)N1CCCC1	.	.	-1	-28	-1	2.9	9176
CCOc1cc(S(=O)(=O)Nc2ccc(CC)cc2)ccc1Cl	6	6	3	-10	3	-2.9	11444
COc1ccc(OC)c(NC(=O)C2CCC(CNc3c(N4CCOCC4)c(=O)c3=O)CC2)c1 (centres undefined)	-3	7	14	-3	1	4.8	4231
CC(C)(C)S(=O)(=O)/C(C#N)=N/Nc1ccc(C#N)cc1	.	.	.	-2	7	.	4522
O=C(Nc1cccc(Cl)c1N1CCCC1)c1ccc(Br)o1	16	6	45	-18	-2	2.9	21468*

Copied from the listing, two compounds:
SMILES	Mtb hypoxia inh	Mtb hypoxia inh growth	Sa ugtP lethal	PrP UTR inh	BJeLR viability	Sa RN4220 lethal	Bead autofluor
CC(C)(C)S(=O)(=O)/C(C#N)=N/Nc1ccc(C#N)cc1	.	.	.	-2	7	.	4522
O=C(Nc1cccc(Cl)c1N1CCCC1)c1ccc(Br)o1	16	6	45	-18	-2	2.9	21468*

(listing goes on)
SMILES	Mtb hypoxia inh	Mtb hypoxia inh growth	Sa ugtP lethal	PrP UTR inh	BJeLR viability	Sa RN4220 lethal	Bead autofluor
CC(Sc1nnc(COc2ccccc2)n1-c1ccccc1)C(=O)O (centres undefined)	.	.	.	-63	-1	.	3687
CC(C)NC(=O)CSc1nc(-c2ccccc2)cs1	14	23	8	-79	4	4.4	6076
CCC(C)c1ccc(NC(=O)COC(=O)CCNS(=O)(=O)c2cccs2)cc1 (centres undefined)	-8	3	-4	-15	.	3.2	6236
COc1ccc(CC2(CO)CCN(Cc3c(C)nn(C(C)C)c3C)CC2)cc1	8	-2	1	-9	-3	7.6	?
O=C(CSc1nnc(-c2cccs2)n1CC1CCCO1)c1cc2ccccc2o1 (centres undefined)	3	10	-3	-21	3	15	2820
CCOCC(=O)Nc1ccc2c(c1)N(S(=O)(=O)c1cccs1)CCC2	4	-6	2	-5	1	2.8	4442
Cc1ccc2oc(=O)c3cc(C(=O)NCc4ccco4)sc3c2c1	.	.	10	-6	0	4.1	5359
CCCNC(=O)Cn1nc(C(F)(F)F)c2c1CCC2	10	-1	5	-26	4	-4.8	3997
CC(O)CN(CCC(N)=O)CCC(N)=O (centres undefined)	2	0	-1	-16	2	2.9	10448
Brc1ccc(C2C3=C(Nc4ncnn42)c2ccccc2OC3c2ccncc2)cc1 (centres undefined)	5	6	3	-11	-12	-1.6	8471
COc1ccc(C(=O)Nn2c(SCC(=O)NCC3CCCO3)nc3ccccc3c2=O)cc1 (centres undefined)	22	7	17	46	9	7.1	3348

Assay outcomes from PubChem.
